Screens as filed in PubChem BioAssay.
Vif TR-FRET – inhibitors of Vif binding to APOBEC3G peptide, primary screen, biochemical, TR-FRET, GST-Vif 1-94, biotin-A3G peptide, dose response retest (AID 1117319); TR-FRET GST-Vif / biotin-A3G peptide binding; higher % means a stronger effect; test concentration not given here; strong numbers were not always called active; one-dose inhibition, %; IC50 in µM for titrated hits; actives 0.57% (n = 260,000); Virion infectivity factor (Human immunodeficiency virus type 1 group M subtype B (isolate …;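 active = above the screen mean plus three standard deviations and confirmed in dose response; inconclusive = results disagree or hit not tested in dose response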;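 note: Vif residues 1-94 fused to GST binding biotinylated APOBEC3G peptide 110-148; 0% = full assay without inhibitor and 100% = GST in place of GST-Vif; retest series ran down from 100 µM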
HNF4A DNA FP – change in binding of human HNF4A to DNA, primary screen, biochemical, fluorescence polarization, FITC-DNA; 1 h; activity change, % at 10 µM; actives 0.3% (n = 360,000); AID 1224865, 2016; in the data active = activity change above about 30%, passing the limit was not always enough;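 note: controls were the assay level and a saturating level of protein; the project sought stronger binding though the title names inhibitors; some compounds called inactive have numbers as strong as hits; positive values seem to mean higher polarization but the record does not say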
Target sequence (P41235 whole entry, looked up): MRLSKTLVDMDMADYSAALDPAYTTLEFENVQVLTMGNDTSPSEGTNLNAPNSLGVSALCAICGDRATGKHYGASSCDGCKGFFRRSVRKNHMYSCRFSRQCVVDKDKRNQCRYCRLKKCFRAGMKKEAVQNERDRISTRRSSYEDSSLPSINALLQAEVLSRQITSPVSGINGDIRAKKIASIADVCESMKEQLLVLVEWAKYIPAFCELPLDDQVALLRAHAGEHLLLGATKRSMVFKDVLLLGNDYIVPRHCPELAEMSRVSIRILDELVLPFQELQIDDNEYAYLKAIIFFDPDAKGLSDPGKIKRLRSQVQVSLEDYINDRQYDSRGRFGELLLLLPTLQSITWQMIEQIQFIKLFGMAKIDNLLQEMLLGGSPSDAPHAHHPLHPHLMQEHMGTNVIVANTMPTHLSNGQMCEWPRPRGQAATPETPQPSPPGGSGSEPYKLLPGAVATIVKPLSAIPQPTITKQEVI
ALR H2O2 inh – inhibitors of human ALR sulfhydryl oxidase, primary screen, biochemical, H2O2 detection, HRP-luminol luminescence, single point. FAD-linked sulfhydryl oxidase ALR (Homo sapiens), P55789. purified ALR, DTT oxidation. inhibition, % (concentration not given with the values). actives 3.8% (n = 290,000);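 active = mean and each replicate at 75% or more; inconclusive = only one of the two met; inactive = neither met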;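 note: stock transfer was 7.5 nL into about 7.5 µL; 0% = neutral wells and 100% = wells with inactivated enzyme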
Target sequence (P55789 whole entry, looked up): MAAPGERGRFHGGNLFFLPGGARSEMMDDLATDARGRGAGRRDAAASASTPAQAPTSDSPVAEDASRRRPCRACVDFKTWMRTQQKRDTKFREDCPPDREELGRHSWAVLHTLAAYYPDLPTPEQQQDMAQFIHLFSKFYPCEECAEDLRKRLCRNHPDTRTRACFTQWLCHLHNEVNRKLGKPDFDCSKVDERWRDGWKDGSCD
LANA-H2A inh – blockers of LANA interaction with H2A/H2B – biochemical, FP readout, HTS, primary screen; actives 0.6% (n = 320,000); cell-free LANA-H2A/H2B peptide, fluorescence polarization; Protein LANA1 (Human herpesvirus 8 type P (isolate GK18)), Q9QR71; inhibition, % (test concentration not listed); in the data active = inhibition mostly above about 10%, no sharp cut-off; inactive = mostly below about 6.7%;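 note: stock transfer was 7.5 nL into about 10 µL; 0% = median of vehicle wells and 100% = median of positive control wells; one replicate is shown; the record names a cut of 25% in any replicate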
B2AR ag – beta2AR agonists driving receptor internalization, primary screen, cell-based, FAP fluorogen, flow cytometry | Beta-2 adrenergic receptor (Homo sapiens), P07550 | Am2.2-beta2AR cells; reference of the scale not given here | response, % (no concentration beside the values) | actives 0.43% (n = 340,000);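 active = response above a set limit, near 3 SD of response in nonfluorescent compounds, cut at about 42% in these data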;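 note: stock transfer was 100 nL into about 11 µL; a reference agonist was the positive control; negative values mostly stem from fluorescent compounds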
Target sequence (P07550 whole entry, looked up): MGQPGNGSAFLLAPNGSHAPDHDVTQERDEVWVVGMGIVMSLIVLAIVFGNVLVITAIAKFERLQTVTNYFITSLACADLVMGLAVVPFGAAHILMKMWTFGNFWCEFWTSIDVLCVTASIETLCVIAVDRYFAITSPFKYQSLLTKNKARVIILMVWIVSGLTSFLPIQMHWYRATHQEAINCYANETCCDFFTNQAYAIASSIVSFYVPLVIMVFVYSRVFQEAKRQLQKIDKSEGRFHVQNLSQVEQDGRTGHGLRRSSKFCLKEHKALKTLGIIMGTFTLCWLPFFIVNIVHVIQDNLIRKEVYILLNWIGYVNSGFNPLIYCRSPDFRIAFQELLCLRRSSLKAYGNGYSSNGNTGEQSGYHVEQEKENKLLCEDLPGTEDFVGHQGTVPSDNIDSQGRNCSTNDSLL
RanGTP-Impb inh – inhibitors of RanGTP-importin-beta interaction, primary screen, biochemical, FRET, CFP-Ran, YFP-importin-beta, homogeneous. Ran GTPase (GTP-bound) - importin-beta complex. cell-free CFP-Ran/YFP-importin-beta FRET ratio. inhibition, % (test concentration not listed). actives 1.1% (n = 300,000). AID 2216, 2009;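 active = most replicates above 15%; inconclusive = exactly half above 15%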;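 note: 0% = DMSO wells and 100% = Ran loaded with GDP instead of GTP; wells of about 40 µL received 100 nL stock; the first replicate is given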
Calb FLC – C. albicans growth inhibition with fluconazole, primary screen, CaCi-2 strain, Alamar Blue fluorescence. C. albicans CaCi-2 (fluconazole-resistant clinical isolate) + fluconazole, 48 h. growth inhibition, % (concentration not given with the values). actives 0.57% (n = 300,000);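 active = most replicates above 75%; inconclusive = exactly half above 75%; inactive = most below 75%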;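 note: all wells also contain fluconazole at 8 µg/ml as a sub-toxic cotreatment; 0% = median of DMSO wells and 100% = median of geldanamycin control wells; wells of about 8 µL received 7.5 nL stock; the first replicate is given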
* = called active by the depositor; ? = inconclusive; nt = not tested or not shown; & = joins results of further samples.

The line under a structure holds: Vif TR-FRET	HNF4A DNA FP	ALR H2O2 inh	LANA-H2A inh	B2AR ag	RanGTP-Impb inh	Calb FLC
> Cc1cc2cc(C(c3nnnn3Cc3ccco3)N3CCc4ccccc4C3)c(=O)[nH]c2cc1C (centres undefined)
    33%&11%	4.1	36	3.1	-3	3.5	nt
> N#Cc1ccccc1COc1cccc2c1CCCC2O (centres undefined)
    1%	-2.0	-14	-6.8	-6	2.2	4
> O=C(CCC(=O)c1ccc(-c2ccccc2)cc1)Nc1cccnc1
    -15%	19	-2	-2.2	0	-4.2	2
> O=C(CCN1CCN(c2ccc(F)cc2)CC1)Nc1ccccc1F
    4%	-2.0	?	-1.5	1	1.0	-6
> Cc1cc(NC(=O)COc2coc(CN3CCN(c4ccccc4F)CC3)cc2=O)no1
    -3%	2.6	-2	4.5	-3	0.9	5
> O=C(CCNS(=O)(=O)c1ccc(Cl)cc1)OCC(=O)N1CCN(C(=O)c2ccco2)CC1
    3%	-0.5	1	-0.5	8	3.5	3
> Cc1ccc(-c2csc3ncn(CC(=O)N4CCOCC4)c(=O)c23)cc1C
    -6%	-0.7	-3	1.9	-4	-3.8	2
> CC(C)c1ccc(C(O)Cc2nc3ccccc3n2C)cc1 (centres undefined)
    1%	0.9	-4	2.6	4	-1.2	-4
> COc1ccc(CN(C)C(=S)Nc2ccc(OC(F)F)cc2)cc1
    -1%	-2.5	2	-6.1	6	2.4	7
> COCCNC(=O)COc1ncnc2scc(-c3ccc(F)cc3)c12
    30%	4.4	-9	7.0	-3	nt	-34
> Cc1ccc(N(C=NC#N)CC(=O)N2CCN(c3ccccc3)CC2)cc1
    -1%	-0.3	21	-0.7	8	3.3	3
> COC(=O)CN1C(=O)[C@H]2[C@@H](/C=C/c3ccccc3)N3C(=O)CN(Cc4ccccc4)C(=O)[C@@]3(C)[C@H]2C1=O
    nt	3.7	-13	-0.7	2	1.9	-20
> COc1cc(OC)c(C(=O)OC(C)C(=O)NCc2ccc3c(c2)OCO3)cc1OC (centres undefined)
    2%	0.3	3	-2.0	-7	nt	nt
> COc1ccc(-c2cc(CC3(C(=O)O)CCN(C(=O)OC(C)(C)C)CC3)on2)c(OC)c1
    nt	-0.2	-21	-3.4	4	5.9	-2
> N=c1ccn(CC(=O)c2ccc(-c3ccccc3)cc2)cc1
    nt	0.1	1	2.7	-7	1.1	-2
> N/C(=N\OC(=O)c1ccc(F)cc1)c1ccc(Br)cc1
    nt	-1.3	-4	2.6	0	-0.4	-9
> CCN(Cc1cccs1)C(=O)CN1C(=O)NC(c2ccccc2)(c2ccccc2)C1=O
    -6%	-3.8	1	0.1	2	nt	nt
> COc1cc(C(=O)NCc2nc(C)cs2)ccc1OC1CCN(C(C)=O)CC1
    -5%	3.8	-8	-5.2	-1	-0.6	3
> COc1ccc(/C=N/NC(=S)Nc2c(C)n(C)n(-c3ccccc3)c2=O)cc1OC
    nt	1.2	28	-6.9	5	-2.7	-5
> CCN(CC)c1nc2c3c(nc4c(c3c1C#N)CC(=O)N4c1ccc(Cl)cc1)NC(C)=N2
    ?	12	-6	-0.6	-12	1.2	3
> O=C(NC1CCCC1)C(c1cccnc1)N(CCc1ccccc1)C(=O)c1ccco1 (centres undefined)
    nt	-0.4	-4	-0.4	-11	-0.3	-2
> Cc1ccc(S(=O)(=O)N(c2ccc(Br)cc2)C2C=CS(=O)(=O)C2)cc1 (centres undefined)
    nt	2.1	-4	0.7	2	-2.2	-9
> COCCNC(=O)c1cccc(OC2CCN(Cc3ccc(Cl)c(F)c3)CC2)c1
    -4%	0.9	nt	1.1	0	-2.9	9
> O=C(COC(=O)c1cccs1)NCc1cccs1
    nt	0.8	-5	-2.5	10	-1.7	2
> Cc1cc(C)c(S(=O)(=O)N2CCOCC2)cc1C
    nt	0.4	-16	2.3	2	5.5	-34
> CC1(C)C=C(c2ccc(C=O)s2)CC(C)(C)N1C=O
    nt	3.5	-4	-3.5	7	-2.6	1
> Cc1cc2c(cn1)C(CCC#N)(CCC#N)c1ccccc1-2
    nt	4.7	4	-2.7	-4	-0.5	0
> COc1cccc(CNC(=O)COC(=O)CNC(=O)c2ccc(-c3ccccc3)cc2)c1
    -13%	0.0	nt	nt	6	nt	nt
> NC1(C#Cc2ccc3oc(=O)c(-n4cc(C5(O)CCCCC5)nn4)cc3c2)CCCCC1
    nt	1.4	-2	3.2	-7	nt	nt
> Cc1ccc(N(C)C(=O)N2CCN(S(=O)(=O)c3ccc(C)cc3)CC2)cc1
    4%	3.6	-2	1.4	8	-2.5	-7
> O=C1CN(C(=S)NC(=O)c2ccc(-c3ccccc3)cc2)CCN1
    9%	1.8	-3	-2.3	-5	-0.2	6
> CN1CCCC1CCNc1ccc2sc3ccccc3c(=O)c2c1 (centres undefined)
    nt	-2.2	98*	-12	-131	-193	-14
> CCN(CC)C(=O)c1sc(NC(=O)c2ccc3c(c2)OCO3)c(C(N)=O)c1C
    nt	2.5	0	-1.1	10	4.4	17
> O=C(c1cccn2c(=O)c3cc(Br)ccc3nc12)N1CCN(c2ccccn2)CC1
    -1%	3.3	nt	-0.5	-9	nt	nt
> CN(CCc1ccccn1)c1ccccc1
    15%	-2.4	nt	nt	-7	nt	nt
> CCCCC(c1nnnn1C(C)C)N1CCN(C(=O)c2ccco2)CC1 (centres undefined)
    1%	1.4	nt	-5.0	-3	4.3	3
> CCN(CC)c1ccc(S(=O)(=O)N2CCOCC2)cc1NC(=O)CSc1n[nH]c(N)n1
    -6%	-4.5	0	0.8	2	5.7	0
> O=C(Nc1c(C(=O)N2CCCCC2)cnn1-c1ccccc1)c1ccco1
    31%	0.9	-2	0.1	-4	-3.0	-26
> COC(=O)CCC(=O)OC1(C)C(=O)C2=CN(c3ccc(OC)cc3)C(c3ccc(OC)cc3)=CC2=C(Br)C1=O (centres undefined)
    nt	-1.4	-16	3.2	6	-0.8	-4
> CC1CCCCC1NC(=O)CCCCn1c(=O)[nH]c2ccsc2c1=O (centres undefined)
    nt	2.1	-24	3.0	-21	-4.0	-3
> COC(=O)c1nc(NC(=S)NC(=O)c2cccs2)sc1C
    nt	1.2	15	0.7	1	6.4	16
> COCCN(C(=O)Nc1ccccc1)c1ccccc1C
    25%	1.1	-1	-0.3	0	4.3	-9
> O=C(NCc1cccs1)c1noc2c1CCCC2
    0%	-1.6	-2	-3.6	19	2.9	-5
> CCOC(=O)CNC1CC(=O)N(c2ccc(Br)cc2)C1=O (centres undefined)
    nt	0.8	5	-7.2	6	2.6	-8
> Cc1onc(-c2ccccc2)c1C(=O)OCC(=O)NC(C)c1ccc(Cl)cc1 (centres undefined)
    1%	-1.9	-1	-2.7	6	nt	nt
> CC(C(=O)NC1CCCC1)N1CCN(S(=O)(=O)c2ccccc2Cl)CC1 (centres undefined)
    5%	-1.7	nt	nt	-4	nt	nt
> O=c1[nH]c(-c2ccccc2)cs1
    nt	1.1	50	0.1	-5	2.2	2
> O=C(CSc1nc2c(c(=O)[nH]1)CCCC2)Nc1ccc(Cl)cc1F
    2%	5.5	-9	-7.5	-4	3.3	18
> CCN(CC)c1ccc(/C=C2/C(=O)ON=C2C)cc1
    nt	9.0	55	-0.4	22	-3.1	-14
> COc1ccc(C(=O)NCc2cc(C(C)C)no2)cc1OC1CCN(C(C)C)CC1
    -6%	0.5	-1	-0.2	2	0.6	-3
> COc1ccc(-c2nnc3n2N=C(C)CS3)cc1
    7%	-1.2	-11	0.5	4	1.2	5
> COc1ccccc1C(O)(C(=O)N(NC(C)=O)c1ccccc1)c1ccccc1OC
    -7%	-3.4	nt	nt	-10	-3.3	-4
> CC(=O)Nc1ccc(S(=O)(=O)N2CCN(S(=O)(=O)N3CCCCCC3)CC2)cc1
    -4%	3.4	-2	-1.2	-3	-0.3	0
> CC1CC(C)C(=O)C(C(CC2CC(=O)NC(=O)C2)OC(=O)CC(=O)c2ccccc2)C1 (centres undefined)
    -2%	-3.6	nt	nt	-5	nt	nt
> Cc1cccc(C(C)C)c1NC(=O)Cc1ccc(S(=O)(=O)N2CCOCC2)s1
    -1%	-0.1	-2	-0.6	-5	2.6	-7
> COc1cc(CO)ccc1OCc1nnnn1-c1ccc(C)cc1
    -3%	-1.9	-5	1.0	1	-1.7	0
> O=C(CCN1C(=O)/C(=C/c2ccccc2F)SC1=S)NC1C=CS(=O)(=O)C1 (centres undefined)
    nt	2.5	-6	-0.8	-2	0.1	-3
> Cc1cccn2c(CN[C@H]3CCCCNC3=O)c(C(=O)N3CCOCC3)nc12
    nt	-0.9	-11	-3.4	-1	-1.6	-24
> COc1ccc([N+](=O)[O-])cc1NC(=O)Cc1ccc(Cl)cc1
    nt	-1.9	nt	3.5	-10	?	-2
> O=C(NCCCNC(=O)c1cccs1)c1cccs1
    1%	0.1	-5	3.9	-1	2.7	-5

(listing goes on)
The line under a structure holds: Vif TR-FRET	HNF4A DNA FP	ALR H2O2 inh	LANA-H2A inh	B2AR ag	RanGTP-Impb inh	Calb FLC
> O=C(CNC(=O)c1cccs1)NCCc1ccco1
    nt	-3.3	8	0.3	1	nt	nt
> O=C(O)c1cccc(NC(=O)c2cn(-c3ccccc3)nc2-c2ccncc2)c1
    5%	nt	-2	-0.6	-13	-3.1	17
> COc1cccc(N=Nc2ccc3ccccc3c2O)c1
    nt	11	-28	-2.1	-3	2.9	2
> CC(=O)N1c2ccc(S(=O)(=O)N(C)CC(=O)Nc3ccccc3C)cc2CC1C (centres undefined)
    nt	-3.3	-4	2.6	5	5.7	-10
> CCc1ccc(N2CC(C)Cn3c2nc2c3c(=O)n(CCN3CCOCC3)c(=O)n2C)cc1 (centres undefined)
    ?	-1.6	4	0.7	-3	-3.5	-29
> COc1cc(C)c(S(=O)(=O)N2CCCC2)cc1C
    5%	-3.1	-2	-1.6	-2	-2.5	1
> CCC(=O)Nc1cccc(NC(=O)CSc2nnnn2C)c1
    -4%	-4.0	-5	0.1	-11	?	-20
> CCOC(=O)C1C(=O)CC(C)(O)C(C(=O)OCC)C1c1ccc(OC)cc1 (centres undefined)
    25%	-2.2	-6	1.5	7	3.1	-3
> CCn1c(SCC(=O)NCCc2ccc(OC)c(OC)c2)nc2c1c(=O)n(C)c(=O)n2C
    5%	-1.2	-5	-3.8	3	1.4	3
> CCOC(=O)N1CCN(Cc2nc3c(c(=O)n(C)c(=O)n3C)n2Cc2cccc3ccccc23)CC1
    nt	-1.6	-6	-0.2	5	?	8
> COc1ccc(OC(C)C(=O)NC(C)c2ccccc2)cc1 (centres undefined)
    -6%	-0.5	-23	0.6	-3	5.3	-5
> CCOc1ccc(N(CC(=O)NC(C)C)C(=O)CCC(=O)Nc2ccccn2)cc1
    3%	-0.6	-3	1.6	-3	4.9	2
> CC(=O)NN1C(=O)c2ccccc2NC1c1ccc([N+](=O)[O-])o1 (centres undefined)
    -3%	2.3	-31	-0.6	0	-3.6	9
> O=C(N/N=C/c1cccc([N+](=O)[O-])c1)c1ccncc1
    4%	5.8	nt	-4.1	-1	-2.2	-7
> CC1CCCN(c2nc3c(c(=O)[nH]c(=O)n3C)n2CCCc2ccccc2)C1 (centres undefined)
    15%	-1.8	nt	-1.3	-23	3.4	1
